PINK1 expr mod – A Quantitative High throughput Screen to Identify Chemical Modulators of PINK1 Expression; PINK1 immunofluorescence, high-content cytometry, 24 h; Potency, µM (highest dose often 76.6 µM), without a hit: top-dose activation (PINK1 increase), usual class: activators; hit rate 0.2% among 410,000; AID 624263, 2012; active = well fitted activation curve with a large enough effect; inconclusive = small, poorly fitted or top-dose-only effect; inactive = flat fitted curve, though single readings scatter; cell line not stated here;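 further: potency means the concentration at half of the fitted maximal effect; % of control where 0% means no effect; nearly all actives have a fitted effect of over 65% in size; a mitochondrial uncoupler was the plate control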
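Cells are seeded, rested 12 hours, then given compound at five concentrations or DMSO for 24 hours. After fixation, blocking and antibody staining, PINK1 amount and mitochondrial localization are scored; CCCP serves as control.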
D2 agonist – Beta-Arrestin HTS for Positive Allosteric Modulators of the Human D2 Dopamine Receptor: Agonists | D(2) dopamine receptor (Homo sapiens), P14416 | DiscoveRx PathHunter D2 beta-arrestin, luminescence, 90 min; 100% = 57 uM dopamine signal | activation, % (concentration not given with the values) | hit rate 0.084% among 360,000 | AID 624465, 2012; in the data active = activation above about 40%; inconclusive = about 15% to 40%; inactive = below about 15%; further: compound concentration not given in the record; the text of the record calls up to 30% inactive
Target sequence (P14416 whole entry, looked up): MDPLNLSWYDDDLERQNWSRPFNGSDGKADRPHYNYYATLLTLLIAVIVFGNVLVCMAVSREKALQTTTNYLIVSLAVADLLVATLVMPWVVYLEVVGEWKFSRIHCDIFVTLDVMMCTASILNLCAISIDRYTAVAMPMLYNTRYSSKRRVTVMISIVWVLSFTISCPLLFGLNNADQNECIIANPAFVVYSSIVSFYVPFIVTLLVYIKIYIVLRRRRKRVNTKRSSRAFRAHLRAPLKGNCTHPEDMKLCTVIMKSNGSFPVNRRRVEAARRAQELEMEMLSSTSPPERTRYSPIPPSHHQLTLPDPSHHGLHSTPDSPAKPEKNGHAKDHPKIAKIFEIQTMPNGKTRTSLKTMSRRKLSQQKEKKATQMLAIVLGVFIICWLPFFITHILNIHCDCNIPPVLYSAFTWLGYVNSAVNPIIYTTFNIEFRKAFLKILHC
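DiscoveRx PathHunter D2 beta-arrestin cells (2,100/well) attached overnight, then compound-stimulated 90 min at 37 C in HBSS/10 mM HEPES/0.1% Tween-20 buffer; beta-galactosidase complementation read by luminescence after 1 h at ambient temperature. Dopamine 57 uM final (EC100) as control.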
CtBP-E1A blk – qHTS Assay for Inhibitors of the CtBP/E1A Interaction | CtBP / adenovirus E1A interaction (AlphaScreen) | AlphaScreen GST-E1A/His-CtBP binding, 1536-well; hits give low values; control for the full effect not named in the record | activity change, % (test concentration not listed) | hit rate 0.49% among 340,000; in the data active means activity change below about -65%; inconclusive means about -30% to -65%; inactive means above about -30%; further: on the % scale 0 is the no-effect control and ±100 the full control effect; compound concentration not given in the record
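Steps: dispense buffer (Tris pH 8.0, NaCl 300 mM, TCEP 1 mM, BSA, Tween 20); add 5X protein mix (GST-E1A, His-CtBP, 125 nM each); pin 23 nL compound; 2 h at 37 °C, dark; add 5X beads (50 ug/mL); 1 h; read.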
TRPML1 ag – qHTS for Agonists of the Human Mucolipin Transient Receptor Potential 1 (TRPML1). hit rate 0.12% among 410,000. TRPML1-expressing cells, Ca2+ dye fluorescence, FDSS; host cell line not named in the record; reference of the full effect not given here. activation, % (concentration not given with the values); in the data active = activation above about 50%; inconclusive = about 30% to 50%; inactive = below about 30%; further: 0% is about no effect; the text of the record puts the active cut at 80%
Target sequence (Q9GZU1 whole entry, looked up): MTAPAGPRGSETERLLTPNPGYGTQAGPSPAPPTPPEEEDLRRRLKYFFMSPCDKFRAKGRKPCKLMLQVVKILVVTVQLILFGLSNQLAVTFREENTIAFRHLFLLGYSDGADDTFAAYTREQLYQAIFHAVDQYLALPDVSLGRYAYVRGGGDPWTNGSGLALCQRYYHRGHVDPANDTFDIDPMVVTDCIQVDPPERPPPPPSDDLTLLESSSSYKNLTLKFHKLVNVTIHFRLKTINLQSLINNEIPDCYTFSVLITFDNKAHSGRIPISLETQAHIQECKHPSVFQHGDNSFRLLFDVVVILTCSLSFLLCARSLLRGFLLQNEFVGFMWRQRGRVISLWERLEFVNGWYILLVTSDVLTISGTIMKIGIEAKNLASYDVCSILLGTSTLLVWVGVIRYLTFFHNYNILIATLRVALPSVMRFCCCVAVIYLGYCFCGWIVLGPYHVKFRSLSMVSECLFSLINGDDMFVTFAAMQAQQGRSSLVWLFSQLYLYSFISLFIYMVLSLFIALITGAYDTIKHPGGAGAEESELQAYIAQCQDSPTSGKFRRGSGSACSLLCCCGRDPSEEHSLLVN
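Kinetic FDSS Ca2+ read in Tet-induced TRPML1-DL cells (ABD Ca8 dye plus quencher, 45-90 min RT loading): baseline, then compound, then 110 s agonist window; EC80 agonist 54-4 at 4uM final added afterwards for a 110 s antagonist window.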
D2 potentiator – Beta-Arrestin HTS for Positive Allosteric Modulators of the Human D2 Dopamine Receptor: Potentiators. D(2) dopamine receptor (Homo sapiens), P14416. DiscoveRx D2 beta-arrestin cells, luminescence, 90 min; 100% = 57 uM dopamine signal. potentiation, % (no concentration beside the values). hit rate 0.23% among 360,000; active = potentiation of 50% or more; inconclusive = 30% to 50%; inactive = 30% or less;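 further: compound concentration not given in the record; tested on top of an EC20 dose of dopamine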
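PathHunter D2 cells, attached overnight at 37 deg C, received compound in DMSO plus dopamine at EC20 (50 nM final) for 90 min at 37 deg C. Beta-arrestin recruitment was read as luminescence after 1 h with detection reagent at ambient temperature.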
Six1-Eya2 inh – qHTS Assay for Inhibitors of the Six1/Eya2 Interaction | AlphaScreen GST-Six1/His-Eya2 binding, biochemical; hits give low values; control for the full effect not named in the record | activity change, % (concentration not given with the values) | hit rate 0.56% among 360,000; in the data active = activity change below about -65%; inconclusive = about -30% to -65%; inactive = above about -30%; further: on the % scale 0 is the no-effect control and ±100 the full control effect
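Homogeneous AlphaScreen proximity assay pairing GST-Six1 with His-tagged Eya2 (added as 5X mix: 250 nM and 500 nM) in 50 mM Tris pH 8.0, 300 mM NaCl, 1 mM TCEP. Glutathione donor and nickel acceptor beads; 1 h, 37 °C, dark.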
An asterisk follows results filed as active; u = inconclusive; x = no result given; [ ] = remark or other dose.

cpd	Compound	PINK1 expr mod	D2 agonist	CtBP-E1A blk	TRPML1 ag	D2 potentiator	Six1-Eya2 inh
1	COc1ccc(CCNC2CC(=O)N(C)C2=O)cc1OC (stereo unspecified)	-1.8%[38.3 µM]	-0.2	4	-0.7	-4	2
2	CCOC(=O)CC1=CC(=O)Nc2ccccc2N1	-1.0%	-2.9	8	-0.4	-5	-15
3	COc1ccc(NC2CCCN(C(=O)CN3CCOC3=O)C2)cc1OC (stereo unspecified)	0.8%	3.2	1	-0.2	-5	2
4	COCC(=O)NC1CC2CCC(C1)N2C(=S)Nc1ccccc1C(=O)OC (stereo unspecified)	-0.3%	4.5	5	1.2	7	-4
5	CCOC(=O)c1ccc(NC(=O)C23CCC(C)(C(=O)O2)C3(C)C)cc1 (stereo unspecified)	7.9%[38.3 µM]	-1.8	-2	-0.7	-5	-1
6	COc1cccc(C2C(C(=O)c3cc4ccccc4o3)=C(O)C(=O)N2CCN(C)C)c1OC (stereo unspecified)	-1.5%	-5.1	0	-0.9	-29	0
7	COC(=O)C1CCN(C(=O)CSc2nc3nc(C)cc(C)n3n2)CC1	1.9%	0.2	6	-0.9	21	-1
8	CCOC(=O)C1(CCCc2ccccc2)CCN(S(=O)(=O)N(C)C)CC1	0.3%	7.9	19	0.1	10	21
9	CC(C)(C)NC(=O)N1CCN(S(=O)(=O)c2ccc3c(c2)CCC3)CC1	-0.8%	3.3	-2	0.8	-1	0
10	CC(C)N(C(=O)[C@H]1C[C@H](CC(=O)NC(C)(C)C)C(=O)N2CCc3c([nH]c4cc(-c5ccco5)ccc34)[C@]12C)C(C)C	u	-3.3	-14	-0.6	-11	-20
11	Cc1ccc(S(=O)(=O)Nc2ccc(C(=O)Nc3cc(C)on3)cc2)cc1	0.4%[38.3 µM]	0.6	-3	0.7	-7	-4
12	O=C(Cn1nnc2ccccc2c1=O)Nc1ccc(S(=O)(=O)N2CCOCC2)cc1	-0.8%	-3.5	7	1.1	-3	13
13	O=C(Cc1ccc(NC(=O)C2CCCN(C(=O)C3CCCCC3)C2)cc1)Nc1cccc(C(=O)N2CCCCC2)c1 (stereo unspecified)	-0.1%	3.2	7	3.3	-5	-3
14	Cc1ccc(-c2cc(-c3cccs3)[nH]n2)c(O)c1	10%	-3.9	9	-0.2	-6	-4
15	CC(C)(C)C(=O)N1CCN(c2nc3ccccc3s2)CC1	0.5%	-0.6	x	0.1	-9	4
16	Cc1cccc(OCCC(=O)Nc2nnc(C)s2)c1	1.5%	-0.5	5	0.0	-2	6
17	COc1ccc(CCNC(=O)c2cc(S(=O)(=O)N3CCOCC3)cn2C)cc1OC	0.3%	-5.2	-21	-0.2	-4	6
18	COc1ccc2c(c1)[nH]c1c(Cl)ncnc12	-0.3%	6.1	-8	-1.1	2	-9
19	CCOC(=O)c1c(C)[nH]c(C)c1C(=O)COC(=O)Cc1ccc(OC)c(OC)c1	-0.6%	0.8	-9	0.6	-5	-16
20	CCN(CC)C(=O)c1ccc(Nc2nnc(C)c3ccccc23)cc1	-3.7%[38.3 µM]	0.0	-18	0.1	-18	-15
21	CC(=O)Nc1ccc(S(=O)(=O)N(Cc2cccnc2)Cc2cc3ccccc3[nH]c2=O)cc1	-1.4%	-8.6	x	-0.9	24	0
22	Cc1cc(C2=NNC(=NC3CC3)SC2)c(C)n1-c1ccccc1F	u	-5.1	1	1.6	0	-11
23	CCNC(=O)NC(=O)C(C)Sc1nc2ccccc2c(=O)n1-c1cccnc1 (stereo unspecified)	-0.8%	-0.1	8	1.4	-4	5
24	Cc1ccc(OC(=O)CCc2c(C)nc3ncnn3c2C)cc1	4.4%[38.3 µM]	-2.0	-7	-0.7	-9	-6
25	Cc1cc(OC(=O)c2ccccc2)c([N+](=O)[O-])c(=O)[nH]1	-1.2%	-3.0	x	-0.9	0	29
26	N#Cc1c(SCC(N)=O)nsc1SCc1ccc(Cl)cc1	2.0%	1.2	-1	0.3	-3	-2
27	CC1CCc2sc(C(=O)OCC(=O)NC(C)C)cc2C1 (stereo unspecified)	-1.8%	-2.4	-13	-0.2	-4	-8
28	COc1ccc(CCNC(=O)CSCc2c(F)cccc2Cl)cc1OC	0.2%	-1.2	-6	0.5	-3	-4
29	Cc1ccc(S(=O)(=O)N2CCCCC2)cc1NC(=O)C1CC(=O)N(Cc2ccco2)C1 (stereo unspecified)	-1.0%	-5.8	0	0.5	-18	14
30	COc1ccc(C(=O)O/N=C(\C)c2ccccc2)cc1	-0.3%	-2.5	4	0.9	-5	9
31	CC(C)(C)NS(=O)(=O)c1ccc(CCC(=O)NCc2ccccn2)cc1	-0.6%	-4.8	4	0.4	2	-1
32	COc1ccc(N2CCN(C(=O)c3cccnc3SCc3cccc(Br)c3)CC2)cc1	-0.6%	-5.6	u	-0.1	-9	u
33	Cc1cccc(S(=O)(=O)N2CCN(Cc3ccc4c(c3)OCO4)CC2)c1	-0.1%	-1.4	-4	-0.6	-7	-9
34	CCCCCCCCC1=NCCc2c1[nH]c1ccccc21	0.3%	-5.5	0	-0.7	-9	9
35	O=C(CC1(O)C(=O)Nc2ccccc21)c1ccc2c(c1)OCO2 (stereo unspecified)	-1.2%[38.3 µM]	-3.1	-4	0.1	-6	-1
36	Cc1ccc(NC(=S)N(CCCN2CCOCC2)Cc2cccnc2)cc1C	0.1%	-4.9	-4	-1.3	-9	0
37	Cc1ccc(CN2C(=O)c3ccccc3NC2c2ccccn2)cc1 (stereo unspecified)	1.7%	6.9	-16	0.9	4	2
38	Cc1cccc(S(=O)(=O)NC(=O)C2(C)CCN2C(=O)CC2CCCCC2)c1 (stereo unspecified)	2.1%	3.1	7	-0.3	2	12
39	O=C1c2ccccc2C(=O)N1CCCCSc1nnc2ccccn12	-0.3%	0.2	0	-1.2	11	-2
40	CCCC(C)NC(=O)/C=C/c1cccc([N+](=O)[O-])c1 (stereo unspecified)	1.8%	0.1	5	0.7	-28	5
41	CCNC(=S)N=Nc1c(O)[nH]c2ccc(C(C)C)cc12	1.8%	-7.6	u	1.3	-33	u
42	CC(C)(C)c1ccc(/C=N/Nc2cccc(C(=O)O)c2)cc1	1.1%	2.6	7	0.6	-26	-4
43	O=C(O)CSCC(=O)N1CCCN(c2nccc(C(F)(F)F)n2)CC1	1.8%	-4.3	2	x	4	1
44	COc1cccc2cc(-c3ccccc3)c(=O)oc12	3.2%	0.0	6	0.7	2	4
45	O=c1oc2cccnc2n1CCS(=O)(=O)c1ccc(F)cc1	0.7%	-4.5	-2	0.1	-8	2
46	COCCNC(=O)c1ccc2c(=O)n(Cc3ccco3)c(SCC(=O)NC3CCCCC3)nc2c1	x	-0.9	1	0.4	-13	0
47	CCCc1ccc(C(=O)CCC(=O)O)cc1	2.1%	-3.1	4	-0.7	14	4
48	O=C(O)CCNC(=O)c1ccccc1	2.2%	5.6	-3	-0.1	-5	3
49	CC1CCCC(C)N1C(=O)COC(=O)Cc1c[nH]c2ccccc12 (stereo unspecified)	-1.8%	0.2	-21	0.0	-13	-1
50	COc1cc(NC(=O)c2cc3ccccc3o2)c(OC)cc1Br	6.0%	-1.7	-5	0.3	-5	-3

More records
cpd	Compound	PINK1 expr mod	D2 agonist	CtBP-E1A blk	TRPML1 ag	D2 potentiator	Six1-Eya2 inh
51	O=C(CC1C(=O)NCCN1Cc1ccoc1)NCCCn1ncc2ccccc21 (stereo unspecified)	-0.7%	-1.9	-1	1.1	-9	-5
52	COCC(=O)N(C)c1nnc(-c2cnccn2)s1	0.4%	-0.6	-1	2.3	-10	1
53	O=C(CCCNS(=O)(=O)c1cccs1)N1CCc2ccccc2C1	-0.9%	-4.1	1	1.2	12	2
54	OC(c1cccc(CN2CCCCC2)c1)c1ncc(-c2cccc(C(F)(F)F)c2)[nH]1 (stereo unspecified)	5.2%	-4.0	-20	0.1	-14	-9
55	CCSc1nnc(NC(=O)C(CC)(C(F)(F)F)C(F)(F)F)s1	u	2.2	2	-0.7	-15	-1
56	NS(=O)(=O)c1cccc(Nc2nc3ccccc3nc2NS(=O)(=O)c2ccc(Cl)cc2)c1	-2.7%	4.1	3	1.7	3	3
57	CC(=NNc1nc2ccccc2s1)c1ncccn1	0.7%	-1.3	0	9.8	5	-92*
58	CCN(CC)S(=O)(=O)c1ccc2c(c1)c(=O)c(C(=O)NCCOC)cn2C	-0.3%	-0.6	-2	-0.9	-8	-1
59	C[C@H](CO)N1C[C@H](C)[C@H](CN(C)S(=O)(=O)c2ccccc2F)OCc2cnnn2CCCC1=O	0.5%	-1.1	5	x	x	0
60	CSc1nc2ccc(NC(=O)CS(=O)(=O)c3ccccc3)cc2s1	1.2%	1.7	0	1.1	-14	-4

The last 2 entries of the section before come first, to join the parts:
cpd	Compound	PINK1 expr mod	D2 agonist	CtBP-E1A blk	TRPML1 ag	D2 potentiator	Six1-Eya2 inh
59	C[C@H](CO)N1C[C@H](C)[C@H](CN(C)S(=O)(=O)c2ccccc2F)OCc2cnnn2CCCC1=O	0.5%	-1.1	5	x	x	0
60	CSc1nc2ccc(NC(=O)CS(=O)(=O)c3ccccc3)cc2s1	1.2%	1.7	0	1.1	-14	-4
61	CN1CCc2c(sc3c2c(=O)n(-c2ccccc2)c2n[nH]c(=S)n32)C1	-5.1%[38.3 µM]	1.2	-2	-0.4	-2	-4
62	CCOC(=O)C(C)(C)Sc1nc2c(cnn2-c2ccc(F)cc2)c(=O)[nH]1	3.5%	0.8	2	1.1	4	-1
63	Cc1cccc(C(=O)Nc2cc(=O)n(C)c(=O)n2C)c1	2.3%	-2.0	-5	-0.2	-7	5
64	CC1(C)C(=O)N(CCN2CCC(C(=O)c3ccc(F)cc3)CC2)c2ccccc21	0.9%	-2.2	3	0.5	4	6

With a hit mark in Six1-Eya2 inh, among the entries above:
| no. | structure | D2 agonist | CtBP-E1A blk | D2 potentiator | Six1-Eya2 inh |
| --- | --- | --- | --- | --- | --- |
| 57 | CC(=NNc1nc2ccccc2s1)c1ncccn1 | -1.3 | 0 | 5 | -92* |

Screening results: PubChem BioAssay, National Center for Advancing Translational Sciences (NCATS)
